Screens from PubChem.
KAT2A inh: inhibitors of human GCN5L2 histone acetyltransferase; Q92830; Potency, µM (series often up to 58.9 µM), for the others: top-dose activity change, negative = inhibition, hits mostly inhibitors; GCN5L2 HAT assay, ThioGlo1 CoA-SH fluorescence; 0.21% of 390,000 active
Target sequence (Q92830 whole entry, looked up): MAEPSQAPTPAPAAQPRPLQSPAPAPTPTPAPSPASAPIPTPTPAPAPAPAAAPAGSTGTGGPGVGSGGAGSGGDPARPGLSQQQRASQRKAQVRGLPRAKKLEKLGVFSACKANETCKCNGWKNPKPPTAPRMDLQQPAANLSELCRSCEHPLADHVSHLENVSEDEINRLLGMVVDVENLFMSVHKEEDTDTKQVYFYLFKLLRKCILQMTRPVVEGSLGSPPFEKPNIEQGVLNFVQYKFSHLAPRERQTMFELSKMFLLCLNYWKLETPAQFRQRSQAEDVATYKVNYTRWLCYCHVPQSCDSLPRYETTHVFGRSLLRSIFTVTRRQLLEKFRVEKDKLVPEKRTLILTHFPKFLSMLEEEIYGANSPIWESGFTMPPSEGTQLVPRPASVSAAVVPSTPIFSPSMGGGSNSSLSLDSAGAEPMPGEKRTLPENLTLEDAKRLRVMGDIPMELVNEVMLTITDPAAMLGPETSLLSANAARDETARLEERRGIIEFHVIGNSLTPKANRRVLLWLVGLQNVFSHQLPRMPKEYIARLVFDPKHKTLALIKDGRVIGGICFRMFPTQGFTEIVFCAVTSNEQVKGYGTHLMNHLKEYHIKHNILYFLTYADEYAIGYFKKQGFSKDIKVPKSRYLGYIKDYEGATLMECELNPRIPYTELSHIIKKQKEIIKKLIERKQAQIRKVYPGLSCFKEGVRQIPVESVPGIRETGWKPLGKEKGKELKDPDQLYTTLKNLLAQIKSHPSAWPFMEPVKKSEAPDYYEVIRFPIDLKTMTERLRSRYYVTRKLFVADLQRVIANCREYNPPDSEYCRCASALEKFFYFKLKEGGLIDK
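ThioGlo1-coupled HAT assay: 20nM GCN5L2, 70uM acetyl-CoA, 75uM H3(1-25) peptide, pH 7.5. Fluorescence read at 340/540nm at start and after 20 min at room temperature.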
N370S GC mod: N370S glucocerebrosidase modulation, Gaucher chaperone candidate. Potency, µM (series often up to 59.4 µM), without a hit: at the top dose activity change, negative = inhibition, actives largely listed as inhibitors. 0.092% of 330,000 active. P04062. N370S GC spleen homogenate, 4MU-glucoside fluorescence;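 further: 0% = full enzyme activity and -100% = no enzyme basal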
* hit, by the source's call; ? = inconclusive; . = no result given; & = joins results of further samples; [ ] = remark or other dose. The call rests on the fitted dose curve; in most records, active means well fitted curve in the direction sought with a large enough effect; inconclusive means small, poorly fitted or top-dose-only effect, or another doubt; inactive means no such curve, though single readings can be large; an effect the other way counts as inactive or inconclusive. Unless noted, on the % scale 0 is the no-effect control and ±100 the full control effect; potency means the concentration at half of the fitted maximal effect. The list is partial; most or all hits stand in other tables.

SMILES	KAT2A inh	N370S GC mod
COc1cccc(NC(=O)C(=O)NCC(c2ccc3c(c2)OCO3)N2CCN(C)CC2)c1 (stereo not drawn)	0.6%	.
CC(C)(C)NC(=O)C(c1ccncc1)N(Cc1cccs1)C(=O)c1csnn1 (stereo not drawn)	-14.1%	13.5%
CCSc1oc(-c2ccccc2)nc1S(=O)(=O)c1ccccc1	-17.3%	4.4%
Cc1[nH]nc2c1C1(CCN(C(=O)c3ccccc3)CC1)C(C#N)=C(N)O2	-14.2%	-3.3%
Cc1ccc(C)c(-c2nnc(NC(=O)Cc3ccc(F)cc3)o2)c1	-0.7%	1.4%
CCCCN(C)CCCNC(=O)CN1C(=O)COc2ccc(S(=O)(=O)N3CCOCC3)cc21	-2.4%&0.3%	-4.7%
O=C(O)c1ccc(NS(=O)(=O)/C=C/c2ccccc2)cc1O	-4.0%	4.0%
CCCCC1OC2(C)OC(=N)C1(C#N)C(C#N)(C#N)C2c1ccccc1 (stereo not drawn)	-12.8%	?
COc1ccccc1C(=O)N/N=C(\C)CC(=O)Nc1ccc2c(c1)OCCO2	-6.6%	12.7%
CCN1CCN(S(=O)(=O)c2ccc(Cl)c(C(=O)NC3CCCCC3)c2)CC1	-10.6%	-8.1%
CCCCN(C(=O)CCC(=O)Nc1cc(C)on1)C(C(=O)NC1CCCC1)c1ccc(OCC)cc1 (stereo not drawn)	-0.9%	-6.8%
O=C(COC(=O)/C=C/c1cccs1)Nc1cccc(S(=O)(=O)N2CCCC2)c1	-14.8%	-7.7%
N#Cc1cc(-c2ccccc2)nc(N2CCNCC2)n1	-1.5%	-9.6%
COC(=O)C1=C[C@@H](C(=O)OC)[C@@H]2C3=C(C(=O)[C@]2(C)NC(=O)c2ccccc2)[C@H](C)[C@@H]2C(=O)NC(=O)[C@@H]2[C@@H]3C1	.	-3.5%
CN(C)C(=O)CCc1ccc2c3c([nH]c2c1)[C@]1(C)[C@@H](C(=O)N2CCOCC2)C[C@H](CC(=O)NC(C)(C)C)C(=O)N1CC3	2.0%	.
Cc1cccc(OCC(=O)OC(C)C(=O)Nc2ccc(S(=O)(=O)N3CCCCC3)cc2)c1 (stereo not drawn)	-9.8%	-12.9%
CCCc1c(C(=O)N/N=C/C(C)=C/c2ccco2)nnn1-c1nonc1N	-5.1%	-2.8%
CC(=O)c1ccc(NC(=O)Cn2cnc(S(=O)(=O)N3CCC(C)CC3)c2)cc1	-3.1%	-1.0%
Clc1ccc2nc(-c3ccc4c(c3)OCO4)cn2c1	-7.9%	-17.4%
Cc1ccc(CCNC(=O)C2CCN(S(=O)(=O)c3cccc4nonc34)CC2)cc1	0.0%	4.7%
Cc1ccc(F)cc1NC(=O)Cc1ncc(C(F)(F)F)cc1Cl	2.4%	3.3%
COc1ccc(N2CCN(C(=O)CCNS(=O)(=O)c3ccc(Br)s3)CC2)cc1	0.0%	-24.0%
COc1ccc(N2CCN(S(=O)(=O)c3ccc(OC)c(C(=O)N4CCOCC4)c3)CC2)cc1	-3.9%	-10.7%
CC1CN(Cc2nc3c(c(=O)n(C)c(=O)n3C)n2CCCO)CC(C)O1 (stereo not drawn)	-3.4%	-2.0%
COc1cc(C(=O)Nc2nccs2)ccc1OCc1c(C)noc1C	-5.2%	-20.2%

Some of these compounds in order of their number in KAT2A inh, high to low.
SMILES	KAT2A inh	N370S GC mod
Cc1ccc(F)cc1NC(=O)Cc1ncc(C(F)(F)F)cc1Cl	2.4%	3.3%
COc1ccccc1C(=O)N/N=C(\C)CC(=O)Nc1ccc2c(c1)OCCO2	-6.6%	12.7%
Clc1ccc2nc(-c3ccc4c(c3)OCO4)cn2c1	-7.9%	-17.4%

Remaining list, next part.
SMILES	KAT2A inh	N370S GC mod
Cc1c(C(=O)N2CCCCC2)c(S(=O)(=O)N(C)Cc2ccccc2)c(C)n1C	-6.0%	-22.1%
N#C/C(=C/c1ccc(Oc2ccc([N+](=O)[O-])cn2)cc1)C(=O)N1CCOCC1	-3.5%	2.5%
COCCNC(=O)Cn1nc(C(F)(F)F)c(Br)c1C	-3.3%	-3.4%
Cc1c(C)n(CCN(C)C)c2ncnc(NCc3ccccc3)c12	0.8%	-11.2%
Cn1c(=O)c2c(nc(CN3CCOCC3)n2CCN2CCOCC2)n(C)c1=O	-9.0%	6.4%
Cc1ccc(N2C(=O)CSC2c2ccccn2)cc1Cl (stereo not drawn)	-1.2%	6.1%
C=CCn1c(O)c(CN2CCOCC2)c(C)c(C#N)c1=O	-5.5%	1.2%
N#Cc1c(SCC(=O)Nc2nncs2)sc2c(O)cc(=O)[nH]c12	?	1.1%
FC(F)(F)c1ccc(C2NCCc3sccc32)cc1 (stereo not drawn)	-6.4%	9.6%
Cc1cc(C(=O)N/N=C/c2cccc(OC(=O)c3cccc(Br)c3)c2)n[nH]1	-3.7%	-1.0%
COc1ccc(NC(=O)CCc2nnc3ccc(N4CCC(C)CC4)nn23)cc1	1.4%	-0.1%
COc1ccc(C(C)=O)cc1COC(=O)[C@H](Cc1ccccc1)NC(=O)c1ccco1	-2.2%	.
Cc1cc(C)cc(N(CC(=O)NCc2ccccc2Cl)S(=O)(=O)c2c(C)[nH]c(=O)[nH]c2=O)c1	-8.2%&-1.6%	?
Cc1ccc(NC(=O)C2CCN(S(=O)(=O)c3c(C)nn(C)c3C)CC2)c(Cl)c1	-4.6%	-8.0%
COC1(NS(=O)(=O)c2ccc(Br)cc2)C(C)=CC(=O)C=C1C	-12.0%	-3.5%
Cc1cc(C)n2nc(C(=O)OCC(=O)N(C)CC(=O)Nc3ccccc3Cl)nc2n1	0.6%	0.4%
CNC(=O)c1nnsc1S(=O)c1ccc(Cl)cc1 (stereo not drawn)	-16.2%	2.7%
NC(=O)C1CCN(Cc2nnnn2Cc2ccco2)CC1	-0.8%	.
C=CCOc1ccccc1/C=N/NC(=O)Cc1ccccc1	?	-2.3%
COC(=O)C(C)(C)NC(=O)c1cccs1	0.1%	-0.5%
O=C(COC(=O)/C=C/c1cccc([N+](=O)[O-])c1)Nc1cccnc1Cl	-3.4%	.
COc1cccc2cc(C(=O)Nc3cccnc3N3CCOCC3)c(=O)oc12	-6.6%	2.6%
Nc1nnnn1/N=C/c1cccc(Br)c1	-6.4%	1.7%
CCOc1cc(C2CC(=O)Nc3nc(SCc4ccccc4)[nH]c(=O)c32)ccc1O (stereo not drawn)	-5.0%	.
COc1cccc(CN2c3ccccc3-c3nc(SCC(=O)Nc4cccc(C)c4)ncc3S2(=O)=O)c1	-9.8%	.

For reference, some entries already given.
SMILES	KAT2A inh	N370S GC mod
Cc1c(C(=O)N2CCCCC2)c(S(=O)(=O)N(C)Cc2ccccc2)c(C)n1C	-6.0%	-22.1%
N#C/C(=C/c1ccc(Oc2ccc([N+](=O)[O-])cn2)cc1)C(=O)N1CCOCC1	-3.5%	2.5%
COCCNC(=O)Cn1nc(C(F)(F)F)c(Br)c1C	-3.3%	-3.4%
Cc1c(C)n(CCN(C)C)c2ncnc(NCc3ccccc3)c12	0.8%	-11.2%
Cn1c(=O)c2c(nc(CN3CCOCC3)n2CCN2CCOCC2)n(C)c1=O	-9.0%	6.4%
Cc1ccc(N2C(=O)CSC2c2ccccn2)cc1Cl (stereo not drawn)	-1.2%	6.1%

Further structures follow.
SMILES	KAT2A inh	N370S GC mod
C=CCc1ccc(OCC(O)CN2CCc3ccccc3C2)c(OC)c1 (stereo not drawn)	-0.1%	-27.4%
Cc1ccc(C(=O)Nc2nnc(S(=O)(=O)N(C)Cc3ccc(Cl)cc3)s2)cc1	-9.2%	.
O=C(Nc1cccc(NC(=O)c2ccco2)n1)c1ccco1	-1.3%	-4.1%
COc1ccccc1CNC(=O)c1ccc(S(=O)(=O)N(C)C)cc1	2.2%	9.1%
CC1(C)CC(=O)C2=C(C1)OC1=C(C(=O)CC(C)(C)C1)C2c1cc([N+](=O)[O-])cc([N+](=O)[O-])c1O	0.0%	13.5%
CC(C)CC(c1nnnn1Cc1ccco1)N1CCN(c2cccc(Cl)c2)CC1 (stereo not drawn)	-8.6%	4.2%
CSc1ncc(C(=O)N2CCN(c3cccc(C(F)(F)F)c3)CC2)c(C)n1	-11.6%	.
COc1ccc(OC)c(NC(=O)CSc2nc(-c3ccccc3)cc(=O)[nH]2)c1	-26.0%	?
COc1ccccc1CNC(=O)c1ccncc1	-3.8%	4.5%
Cn1ccnc1SCC(=O)NC1CCCCC1	-6.5%	10.1%
N[C@H](Cc1ccc(O)c(O)c1)C(=O)O	.	0.4%&-17.9%
Cc1cc(=O)n(C(NC(=O)c2ccccc2)C(=O)c2ccccc2)cn1 (stereo not drawn)	-2.8%	4.5%
Cc1cc(C)n(-c2nnc(C)n2NS(C)(=O)=O)n1	0.1%	4.8%
CN(CC(=O)Nc1ccccc1Cl)C(=O)Cn1cnc2ccccc2c1=O	-0.3%	-3.3%
CCOc1cc(C#N)c(NC(=O)Cn2nnc3ccccc32)cc1OCC	2.1%	-2.6%
Cc1ncoc1C(=O)N1CCCC(N2CCN(c3cccc(C(F)(F)F)c3)CC2)C1 (stereo not drawn)	-2.8%	0.2%
CN1CCN(CCNC(=O)c2ccc3nc(-c4ccc(F)cc4)c(-c4ccc(F)cc4)nc3c2)CC1	-1.5%	?
CN(CC(=O)N1CC=C(c2ccccc2)CC1)S(=O)(=O)c1cnc[nH]1	8.6%	1.0%
COc1cccc(C(=O)NC2CC(C)(C)Cc3c2cnn3-c2cccc(F)c2)c1OC (stereo not drawn)	-3.0%	-9.2%
CN(C(=O)c1ccc(Br)o1)C1(C)CCS(=O)(=O)C1 (stereo not drawn)	0.4%	-6.3%
CCC(=O)N1CCCc2cc(S(=O)(=O)Nc3ccc(C)c(C)c3)ccc21	0.1%	.
COc1ccc(N2CCN(C(=O)CCS(=O)(=O)c3cc(Br)cc4c3N(C(=O)C3CC3)CC4)CC2)cc1	-3.8%	.
O=C(Nc1cccc(S(=O)(=O)N2CCCC2)c1)c1cccnc1	-4.7%	-2.6%
O=C(O)C1CC=CCC1C(=O)Nc1ccccc1Cl (stereo not drawn)	-8.8%	8.1%[2.35 µM]
Cc1ccc(NC(=S)NCCCN2CCOCC2)cc1	2.2%	-8.8%
The list continues:
SMILES	KAT2A inh	N370S GC mod
COC(=O)CCc1c(C)nc(N)[nH]c1=O	-8.3%	-1.5%
Cc1cccc(OCC(=O)NCC(=O)N/N=C/c2ccc(O)cc2O)c1	-2.5%	-21.3%
CCCCC1(C)NC(=O)c2c(C)sc(C(=O)OCC)c2N1 (stereo not drawn)	-14.1%	7.2%
CCc1cccc2c1NC(=O)C21OCCO1	-4.6%	1.6%
Cc1cccc(NC(=O)CNC(=O)C23CC4CC(CC(Cl)(C4)C2)C3)n1	-7.3%	-3.9%
O=C(O)C1C2C=CC(O2)C1C(=O)NCc1ccc2c(c1)OCO2 (stereo not drawn)	-5.7%	-0.2%
CC(=O)Nc1ccccc1-c1ccc(C)o1	-7.7%	-1.9%
Cc1cccc(C)c1NC(=S)NCc1ccncc1	-2.7%	2.6%
O=C(c1ccccc1Cl)N1CCNCC1	-3.9%	3.7%
COc1ccc(-c2csc3ncnc(N4CCN(S(=O)(=O)c5ccc(C)c(C)c5)CC4)c23)cc1	0.4%	-21.0%
O=S(=O)(Nc1ccc2c(c1)nc1n2CCOC1)c1ccc(Cl)cc1	-0.4%	-0.8%
Cc1cccc(-c2noc(CNC(=O)c3ccccc3Br)n2)c1	-5.8%	.
CC12CC3CC(C)(C1)CC(Nc1nc(N4CCOCC4)nc4ccccc14)(C3)C2	-0.3%	4.7%
Cc1ccc(C(C)C)c(OCC(=O)NNC2=CC(=O)CC(C)(C)C2)c1	1.6%	-1.7%
CCCCc1ccc(NC(=O)CC(C)=O)cc1	-1.7%	9.1%
O=C(CSc1cccc2cccnc12)Nc1cccc(S(=O)(=O)N2CCOCC2)c1	-2.8%	-11.8%
CCOC(=O)/C=C/C(=O)Nc1ccc(S(=O)(=O)Nc2c(C)cc(C)cc2C)cc1	0.1%	-2.8%
O=C(Nc1cccc([N+](=O)[O-])c1)C1C2CC/C=C\CCC21 (stereo not drawn)	-2.4%	5.5%
COc1ccc(CNC(=S)N2CCN(S(=O)(=O)c3cccc(F)c3)CC2)cc1	-14.2%	-3.8%
O=C(NCCCn1ccnc1)c1ccc(Br)s1	-12.8%	-3.0%
NC(=O)CCCc1nc(-c2ccccc2Cl)no1	-10.9%	9.8%
O=C(Nc1ccc(OC(=O)c2cccs2)cc1)c1ccco1	-23.5%	5.4%
O=C(O)c1ccc(NC(=O)c2cc(S(=O)(=O)N3CCCCC3)c(Cl)cc2Cl)cc1	13.6%	.
CCC(=O)NC(=S)Nc1ccc(S(=O)(=O)NC(C)=O)cc1	2.7%	1.4%[12.8 µM]
O=C(CN1CCCCCC1)Nc1c(Cl)cc(Cl)cc1Cl	-12.1%	0.6%
More compounds.
SMILES	KAT2A inh	N370S GC mod
Nc1nc(SCC(=O)N2CCCCCC2)[nH]c(=O)c1NC(=O)c1ccco1	-2.0%	8.4%
Cc1ccc(-c2noc(CCC(=O)NCc3ccccc3CN3CCOCC3)n2)cc1	-2.4%	.
CCOc1cc(N2CCOCC2)c(OCC)cc1NC(=O)c1cc(C)cc(C)c1	-16.0%	8.1%
Cc1cc(NS(=O)(=O)c2ccc(NC(=O)c3ccc([N+](=O)[O-])s3)cc2)nc(C)n1	-7.2%	.
CN(CCc1ccccc1)C(=O)c1cccc(NC(=O)Cc2cccc([N+](=O)[O-])c2)c1	-5.3%	.
COCCN(CCOC)S(=O)(=O)c1ccc(C(=O)Nc2ccc(S(=O)(=O)Nc3nccc(C)n3)cc2)cc1	-4.8%	-11.0%
